From PubChem BioAssay
VACV mCherry inh: inhibitors of vaccinia virus infection (mCherry reporter signal) | Vaccinia virus mCherry reporter infection, fluorescence; about a quarter of the inactives have no number | Potency, µM (highest dose often 36.5 µM), without a hit: at the highest dose activity change, negative = inhibition, hits mostly inhibitors | hit rate 0.63% among 310,000 | AID 720579; active = well fitted inhibition curve with a large enough effect; inconclusive = small, poorly fitted or top-dose-only effect; inactive = no such curve, though single readings can be large or run the other way; tested in A549 cells; note: nearly all actives have a fitted effect of over 35% in size; inactives centre near -10
VACV Venus inh: vaccinia inhibition (Venus reporter) | Potency, µM (titrated, usually from 36.5 µM), for the others: at the top dose activity change, negative = inhibition, actives largely listed as inhibitors | hit rate 0.46% among 330,000 | AID 720580 | Vaccinia virus Venus reporter expression, fluorescence; active means well fitted inhibition curve with a large enough effect; inconclusive means small, poorly fitted or top-dose-only effect; inactive means no such curve, though single readings can be large or run the other way; tested in A549 cells; note: nearly all actives have a fitted effect of over 30% in size; inactives centre near -10
* marks the source's active call; other numbers are inactive results; i = inactive; ? = inconclusive; · = not tested or not shown; [ ] = another dose, or the depositor's remark. % is set by controls: 0 for no effect and ±100 for the full control effect; potency is the fitted concentration of half-maximal effect.

Below each compound: VACV mCherry inh | VACV Venus inh
> CCCCn1nnnc1SCC(=O)NNC(=O)c1ccco1
  -9.7% | -18.0%
> Nc1ncnc2c1ncn2CCN1CCOCC1
  · | -0.7%
> COc1ccc(NC(=O)CN(C)C(=O)c2c(C)nn(-c3ccccc3)c2Cl)cc1
  7.4% | -8.3%
> COc1ccc(N2CCN(CCCNC(=O)c3nnc(Cc4ccc(F)cc4)o3)CC2)cc1
  i | -7.8%
> O=C(c1ccc2c(c1)CCC2)N1CCN(Cc2ccccc2)CC1
  -3.9% | -19.8%
> COc1cccc(/C=N/NC(=O)c2c(-c3ccccc3)noc2C)c1OC
  -13.9% | -9.3%
> CC1Cn2c(nc(=O)c3c2NCN(CCc2ccccc2)C3)S1 (stereo not given)
  i | -4.5%
> CCOC(=O)C(C)Oc1cccc2c(=O)n(CC(=O)Nc3cccc(OC)c3)ccc12 (stereo not given)
  -11.6% | 3.0%
> COc1cc(OC)cc(-c2noc([C@@H]3O[C@H](CO)[C@@H](O)[C@H]3O)n2)c1
  i | -3.8%
> O=[N+]([O-])c1ccc(COc2ccccc2/C=N/O)cc1
  -12.4% | 1.3%
> NS(=O)(=O)c1ccc(N/C=C\C(=O)c2cccc3ccccc23)cc1
  -6.6% | -7.6%
> COC(=O)C(Cc1ccccc1)NC(=O)CCc1c[nH]c2ccccc12 (stereo not given)
  -11.3% | -0.8%
> Cc1ccc(CC(=O)N2CCN(c3ccccc3F)CC2)cc1
  -0.8% | -6.4%
> COc1ccccc1Cc1nc2ccccc2nc1SCC(=O)Nc1cccc(Cl)c1C
  -8.9% | -8.3%
> CCN(CC)c1ccc(NC(=S)NC(=O)c2ccco2)cc1
  -25.5% | -17.3%
> Clc1ccc(CN2CCCCCC2)cc1Cl
  -7.0% | -13.5%
> c1ccc(Nc2nc3ccccc3[nH]2)nc1
  -16.0% | -5.3%
> CCc1ccc(NC(=O)c2cnc3n(c2=O)CCS3)cc1
  i | -21.9%
> Cc1cccc(C(=O)N[C@H](C(=O)Nc2nc(C)cs2)C(C)C)c1
  -13.2% | -4.6%
> C/C(Cn1nc([N+](=O)[O-])cc1C)=N\NC(=O)c1cccc(Br)c1
  · | -22.0%
> CCOc1ccc(Cl)cc1CNCCc1ccc(F)cc1
  i | -1.5%
> CCC(C)(C)C1CCc2c(sc(NC(=O)C3c4ccccc4Oc4ccccc43)c2C(N)=O)C1 (stereo not given)
  -17.1% | -10.4%
> O=C(NCc1ccccc1)NC1(C(=O)N2CCN3CCCC3C2)CCCCC1 (stereo not given)
  · | -10.3%
> CN(C)c1ccc(/C=N/NC(=O)C(=O)/C=C2\NC3(CCCC3)Cc3ccccc32)cc1
  i | -14.4%
> Cc1ccccc1C(=O)Nc1nnc(-c2cccnc2)o1
  -0.2% | -8.0%
> CC(=O)C1=C(C)NC(=O)NC1c1cccc([N+](=O)[O-])c1O (stereo not given)
  -0.2% | -6.7%
> Cc1ccc(S(=O)(=O)N2CCOCC2)cc1C(=O)N1CCOCC1
  -6.2% | -6.4%
> CCc1ccc(C(=O)NCc2cnn(C)c2)s1
  i | -12.2%
> O=C(COc1ccccc1Cl)Nc1cccc(S(=O)(=O)NC2=NCCCCC2)c1
  i | -5.7%
> NC1=NC(=O)/C(=C/c2cccs2)S1
  -8.4% | -18.0%
> C#Cc1ccc(NC(=O)C2(C)CCN2C(=O)Cc2ccc(C(C)C)cc2)cc1 (stereo not given)
  13.3% | -18.6%
> CCc1ccc(-c2cc(C)no2)cc1S(=O)(=O)N1CC(=O)Nc2ccccc21
  -12.3% | -0.2%
> CCOC(=O)c1sc2nc3c(SCC(=O)O)cc(C(=O)c4cc(F)ccc4O)cn3c(=O)c2c1C
  -7.8% | -1.2%
> O=C(NCc1ccc2c(c1)OCO2)c1cc(-c2ccccn2)nc2ccccc12
  -3.6% | -4.5%
> Cc1ccccc1N=CC1=C(O)c2ccccc2C1=O
  -9.6% | 3.4%
> COC(=O)C1C2CC(C(Br)C2Br)C1C(=O)O (stereo not given)
  -14.7% | 4.8%
> COc1ccc(-c2cc(CCC(=O)N3CCN(c4cc(C)ccc4C)CC3)on2)cc1
  -9.2% | -7.9%
> NC(=S)N/N=C/c1ccc(-c2cc(Cl)c(Cl)cc2Cl)o1
  ? | -20.1%
> C/C(=N\OC(=O)NC(C)C)c1sc(-c2ccccc2)nc1C
  -5.2% | -24.4%
> CCOc1cc(C(=O)Nc2ccc3c(c2)OCO3)ccc1OCCOc1ccccc1Cl
  -26.0% | -17.4%

Structures above that have bromine:
Below each compound: VACV mCherry inh | VACV Venus inh
> C/C(Cn1nc([N+](=O)[O-])cc1C)=N\NC(=O)c1cccc(Br)c1
  · | -22.0%
> COC(=O)C1C2CC(C(Br)C2Br)C1C(=O)O (stereo not given)
  -14.7% | 4.8%

New compounds follow
Below each compound: VACV mCherry inh | VACV Venus inh
> CC(/C=N/n1c(-c2cccnc2)n[nH]c1=S)=C\c1ccco1
  -20.2% | -18.3%
> CN1C(=O)N(C)C2C1N(C)S(=O)(=O)N2C (stereo not given)
  i[1.46 µM] | -13.5%
> Cc1cc(=O)n(Cc2ccc(F)cc2Cl)c2c1c(C)nn2C
  -15.7% | -0.5%
> O=C(Nc1cccnc1N1CCOCC1)c1cc2ccccc2oc1=O
  -14.1% | -1.3%
> CSc1nc(N)nc2c1ncn2CC(=O)NCc1ccccc1
  i | -9.5%
> O=C(Nc1nnc(-c2ccc(Cl)cc2)o1)Nc1ccccc1F
  i | -4.7%
> CCOc1ccccc1C(=O)NC1CC2CCCC(C1)N2Cc1ccc(C)cc1 (stereo not given)
  -12.7% | -1.2%
> COc1cccc(/C=N/NC(=S)NCCc2ccccc2)c1
  ? | -3.1%
> CCOc1ccccc1C(=O)N/N=C/c1coc2ccc(Cl)cc2c1=O
  i | -16.0%
> Cc1cc(=O)n2nc(N3CCCC(C(=O)Nc4ccc(C)c(C)c4)C3)sc2n1 (stereo not given)
  -0.8% | -19.1%
> CC(OC(=O)CCCN=C1NS(=O)(=O)c2ccccc21)C(=O)c1ccccc1 (stereo not given)
  -14.9% | -8.7%
> Cc1cc2c(cc1C)-n1nnnc1C(N1CCCNCC1)C(=O)N2 (stereo not given)
  -19.2% | -11.0%
> CCCCNC(=O)c1ccc(/C=C2\Oc3ccccc3N(C)C2=O)cc1
  -7.8% | 11.6%
> CC1CCCCN1CCNC(=O)c1ccc2c(c1)N(Cc1cccc(Cl)c1)C(=O)c1ccccc1S2(=O)=O (stereo not given)
  -13.4% | ?
> CCc1ccc2nc(N(CCCN(C)C)C(=O)c3ccc4c(c3)OCCO4)sc2c1
  ? | ?
> Cc1nn(S(=O)(=O)c2ccc(C(C)(C)C)cc2)c(C)c1S(=O)(=O)N1CCOCC1
  -12.6% | -0.3%
> CC(=O)Nc1nonc1-c1nnc(SCC(=O)Nc2c(C)cccc2C)n1-c1ccccc1
  1.6% | -2.1%
> CCN1CCN(c2ccc(S(=O)(=O)N3CCCCC3)cc2NC(=O)c2cccc(OC(F)F)c2)CC1
  ? | -22.2%
> Cn1c(=O)[nH]c(=O)c2c1nc(Br)n2Cc1cccc(Br)c1
  -19.0% | 2.5%
> N/C(CC(=O)NCCOc1ccccc1)=N\O
  -6.4% | -1.4%
> CC1CCC(C(C)C)[C@H](OC(=O)c2ccccc2)C1 (stereo not given in full)
  i | -3.1%
> Cc1ccc(N2CC(C(=O)N3CCC(C(=O)Nc4cccc(Br)c4)CC3)CC2=O)cc1 (stereo not given)
  1.7% | -11.4%
> CCOc1ccccc1NC(=O)N(C)CCc1c(C)nn(CC)c1C
  -7.4% | -11.0%
> NC(=O)C1CCN(C(=O)CCSCc2ccc(Cl)c(Cl)c2)CC1
  -22.0% | -9.0%
> Cc1oc2ccc(NS(=O)(=O)c3cccc4cccnc34)cc2c1C(=O)OC(C)C
  -7.0% | -17.7%
> O=C(COc1ccc2ccc(=O)oc2c1)N1C[C@H]2C[C@@H](C1)c1cccc(=O)n1C2
  0.1% | -4.1%
> Cc1ccccc1CC(=O)Nc1ccon1
  -17.2% | -9.5%
> CCOc1ccc(C(=O)Nc2ccc(S(=O)(=O)N3CCN(C)CC3)cc2)cc1
  -6.2% | -10.9%
> COc1ccc(CCN=C(NS(=O)(=O)c2ccc(Cl)cc2)c2ccccc2)cc1
  -17.4% | -16.2%
> COc1ccc(CNC(=O)c2cn(Cc3ccc(OC(C)=O)cc3)c(=O)s2)cc1
  i | -7.7%
> CCN(CC(=O)Nc1ccc(NC(C)=O)cc1)CC(=O)Nc1ccc(Cl)c(Cl)c1
  -20.5% | -13.2%
> C[C@H](CO)N1C[C@H](C)[C@H](CN(C)C(=O)Nc2ccccc2F)OCc2cnnn2CCCC1=O
  i | -10.4%
> COc1ccc(OC(=O)CCc2c[nH]c3ccccc23)cc1
  -5.8% | 11.7%
> COc1ccc(CC(=O)Nc2cccc(-c3ccc4nncn4n3)c2)cc1OC
  -7.5% | -21.9%
> CCN(CC)C(=O)CNC(=S)N(CCCN1CCOCC1)Cc1cccs1
  -2.6% | -7.9%
> NC(=O)CN1CCN(c2nc(-c3ccc(F)cc3)cs2)CC1
  -28.6% | -23.7%
> Cc1ccc(N2CC(c3nnc(Cc4ccc(F)cc4Cl)o3)CC2=O)cc1 (stereo not given)
  -8.1% | -2.9%
> Cc1cccc(C(=O)N(Cc2ccco2)Cc2ccccc2F)c1
  -0.3% | -4.9%
> Cc1cccc(C)c1-n1nnnc1C(c1ccnc2ccccc12)N1CCC2(CC1)C(=O)NCN2c1ccccc1 (stereo not given)
  -7.3% | -27.7%
> O=C1c2ccccc2-c2nnc(-c3ccc(F)cc3)cc21
  -7.0% | -2.6%
> O=S(=O)(c1ccccc1Cl)N1CCC(O)(c2cccnc2)CC1
  i | -7.1%
> O=C(O)Cc1c(O)ccc2ccccc12
  -13.9% | -6.8%
> CC1CC(C)(C)NC(=S)N1CCC(=O)N1CCc2ccccc21 (stereo not given)
  i | -8.8%
> COc1cccc(CNC(=O)c2cnc3sc(N4CCCC4)nn3c2=O)c1OC
  i | -18.6%
> Cc1nc(C)c(C(=O)O)s1
  i | 0.5%
> Cc1ccc(CNC(=O)CSc2n[nH]c(N)n2)cc1
  -17.9% | 3.5%
> COC(=O)C1CCN(Cc2ccc3c(c2)CN(C(=O)C2Cc4ccccc4O2)CCO3)CC1 (stereo not given)
  -4.4% | 10.1%
> COCCN1C(=O)c2ccccc2C1c1nnnn1C(C)C (stereo not given)
  21.3% | -1.9%
> CC1=C(C(=O)OC2CCCC2)C(c2ccc(F)cc2F)CC(=O)N1 (stereo not given)
  -0.9% | -9.0%
> CCCCCCN1CC(C(=O)OCC)C(=O)C1=O (stereo not given)
  -14.5% | -17.3%
> Nc1nc(SCC(=O)c2c(N)n(C3CC3)c(=O)[nH]c2=O)n[nH]1
  -25.2% | -14.5%
> COc1cccc(-n2nnc(-c3nc(-c4ccccc4F)no3)c2C)c1
  -8.2%[7.34 µM] | -5.9%[7.34 µM]
> N#CC1=C(N)C(C#N)(C#N)C(c2cccnc2)C2CN(C(=O)OCc3ccccc3)CC=C12 (stereo not given)
  -24.3%[1.46 µM] | -22.7%
> COc1ccc([C@H]2CC(=O)C=C(c3ccc(-c4ccccc4)c(F)c3)C2)cc1OC
  -29.9% | -24.2%
> CCCCSc1nnc(CSc2nc3nc(C)cc(C)n3n2)o1
  -7.3% | -6.7%
> O=C(NNS(=O)(=O)c1ccc(Br)cc1)c1sccc1-n1cccc1
  -6.8% | -2.6%
> COc1cccc2c1Oc1nc(-c3ccccc3)nc(SCC(=O)N3CCCCC3)c1C2
  -6.4% | -6.6%
> CCOc1ccc(CN(CCc2ccc3c(c2)OCO3)Cc2ccc(CC)cc2)cc1
  i | -13.5%
> Cc1cc(C(=O)COc2ccc(C#N)cc2)c(C)n1-c1ccc2c(c1)OCO2
  -26.7% | -13.3%
> CCCc1cc(-c2nc(-c3ccc(Cl)cc3)cs2)ccn1
  -17.9% | -11.2%

(listing goes on)
Below each compound: VACV mCherry inh | VACV Venus inh
> COc1ccc(C(=O)Nc2ccccc2C)cc1S(=O)(=O)N1CCOCC1
  -22.6% | -1.4%
> Cc1nc2c(ccc3nc(NC(=O)C(c4ccccc4)c4ccccc4)sc32)s1
  ? | ?
> O=C(Nc1ccc(S(=O)(=O)NCC2CCCO2)cc1)c1ccc(F)cc1 (stereo not given)
  -31.2% | -17.4%
> COc1cc(CNCc2cccs2)ccc1OCc1cccs1
  -28.1% | -26.1%
> CCCS(=O)(=O)N1CCC(C(=O)NC2CCC(C)CC2)CC1 (stereo not given)
  · | -18.9%
> CC1CCN(C(=S)NC(=O)c2ccco2)CC1
  i | 0.2%
> COc1cc(/C=C2\C(=N)N3N=CSC3=NC2=O)ccc1OS(=O)(=O)c1ccccc1[N+](=O)[O-]
  -7.4% | -8.1%
> Cc1ccc(C(O)(C(=O)OC(C)C)C(O)c2ccccc2)cc1 (stereo not given)
  -16.3% | -8.0%
> CCOC(=O)CN1C(=O)N[C@@H](c2cccc(C(F)(F)F)c2)C(C(=O)OC)=C1C
  i | -3.2%
> COc1ccc(C(C)C)cc1-c1cc(C(=O)NCc2cccc(C(F)(F)F)c2)[nH]n1
  -4.4% | -24.1%
> COc1ccccc1NC(=O)c1c(C)cc(C)nc1SCC(=O)c1ccc(Cl)cc1
  -21.1% | -18.6%
> O=C(Nc1cccc(-c2nc3ncccc3o2)c1)c1sc2cc(Cl)ccc2c1Cl
  i | -6.7%
> Cc1cccc(N2CCN(C(=O)c3oc(=O)c4ccccc4c3-c3ccccc3)CC2C)c1 (stereo not given)
  -14.0% | -6.7%
